Source: PubChem BioAssay (ICCB-Longwood Screening Facility, Harvard Medical School)
HCMV NEC inh: inhibitors of HCMV UL50-UL53 interaction, biochemical, HTRF | normalized percent inhibition | inhibition, % (no concentration beside the values) | 0.15% of 190,000 active | AID 1918969, 2023;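 active = both replicates at 50% or more, plus weaker picks with an unusually low signal ratio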;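 also: stock transfer was 100 nL into about 20 µL; 0% = negative control wells and 100% = wells with untagged competitor protein; inactives centre near -12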
Sa growth inh: S. aureus growth inhibition at 42 and 30 °C, primary screen, LtaS inhibitor project, RN4220, two temperatures. OD600, 20 h, 42 °C; stronger effect = lower value. relative growth, % (test concentration not listed). 0.53% of 170,000 active;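 active = growth at 42 °C up to 50% and 20 or more points under that at 30 °C, or under 10% at both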;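 also: 300 nL library stock went into each well; scaled to the means of positive and negative controls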
GIV-Gai inh: inhibitors of GIV peptide binding to Galpha-i3, primary screen, biochemical, fluorescence polarization, FITC-GIV GBA peptide, rat Galphai3; 90 min; stronger effect = lower value; scaled: aluminum fluoride 0%, vehicle 100%; percent of control (FP), % (no concentration beside the values); 0.42% of 210,000 active; AID 1224905, 2016;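 active = replicate mean at 85% of control or lower, very high polarization wells dropped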;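 also: wells of about 15 µL received 100 nL stock; the first replicate is given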
Target sequence (P08753 whole entry, looked up): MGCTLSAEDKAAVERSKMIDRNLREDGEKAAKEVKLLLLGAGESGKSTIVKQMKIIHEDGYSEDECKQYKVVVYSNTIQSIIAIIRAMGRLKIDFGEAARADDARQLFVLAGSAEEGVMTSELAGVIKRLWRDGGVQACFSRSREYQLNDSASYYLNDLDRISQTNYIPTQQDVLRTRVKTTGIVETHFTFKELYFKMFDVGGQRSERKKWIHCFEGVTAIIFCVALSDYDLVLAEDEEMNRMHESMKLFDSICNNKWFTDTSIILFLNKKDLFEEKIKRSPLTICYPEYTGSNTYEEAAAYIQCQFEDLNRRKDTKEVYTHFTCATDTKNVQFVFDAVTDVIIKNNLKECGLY
Sa growth inh second temp: further read-out of Sa growth inh, marked with its call; relative growth, %; measured here: growth at 30 °C;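 optical density after 20 h as mean of two plates; 100% = untreated growth and lower means inhibition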
An asterisk follows results filed as active; · = not tested or not shown; & = joins results of further samples.

SMILES | HCMV NEC inh | Sa growth inh | Sa growth inh second temp | GIV-Gai inh
CC(C(=O)N1CCc2ccccc21)N1CCc2ccccc2C1 (stereo not given) | -2.5 | 88.1 | 85.0 | ·
CC(=O)N1C2C=CC(C2)C1(C(F)(F)F)C(F)(F)F (stereo not given) | -4.7 | 93.9 | 93.0 | ·
COc1ccc(CNCCSc2nnnn2C)cc1 | -2.7 | · | · | 99.4
Cn1cnc(S(=O)(=O)N2CCC(C(=O)Nc3ccc(Cl)c(C(F)(F)F)c3)CC2)c1 | · | 116.5 | 85.9 | 98.8
Cc1cc(C)n(-c2nc3ccccc3nc2Nc2ccc(Cl)c(Cl)c2)n1 | -4.2 | 99.2 | 85.7 | 101.8
Nc1cccnc1NCc1ccccc1 | · | 72.9 | 46.1 | 181.2
CC(=O)Nc1cccc(C(=O)OCC(=O)N2CCN(c3ccccc3)CC2)c1 | -15.3 | 82.9 | 91.2 | ·
Cc1cc(NC(=O)COC(=O)C23CC4CC(CC(C4)C2)C3)no1 | -25.6 | 77.9 | 86.8 | ·
CC1(C)CN2C(=O)N(c3ccc4c(c3)OCCO4)C(c3ccccc3)N2C1 (stereo not given) | -7.7 | · | · | 101.4
CCOC(=O)C1CCN(C(C)C(=O)NC23CC4CC(CC(C4)C2)C3)CC1 (stereo not given) | -16.7 | 87.5 | 88.5 | ·
CCC(=O)Nc1cccc(OCc2cc(=O)n3nc(CC)sc3n2)c1 | -11.9 | 85.9 | 81.8 | 101.2
CCC(Sc1nnc2n1CCN2c1ccc(OC)cc1)C(=O)OC (stereo not given) | -29.2 | · | · | 100.1

Entries of single compounds from above. Screens in order: HCMV NEC inh	Sa growth inh	Sa growth inh second temp	GIV-Gai inh
Profile of Cc1cc(C)n(-c2nc3ccccc3nc2Nc2ccc(Cl)c(Cl)c2)n1 : -4.2	99.2	85.7	101.8
Profile of CC1(C)CN2C(=O)N(c3ccc4c(c3)OCCO4)C(c3ccccc3)N2C1 (stereo not given) : -7.7	·	·	101.4
Profile of Cc1cc(NC(=O)COC(=O)C23CC4CC(CC(C4)C2)C3)no1 : -25.6	77.9	86.8	·

Shown with values under each structure: part of the list above
Second line of a record: HCMV NEC inh, Sa growth inh, Sa growth inh second temp, GIV-Gai inh
- Nc1cccnc1NCc1ccccc1
 : ·, 72.9, 46.1, 181.2
- CC(=O)Nc1cccc(C(=O)OCC(=O)N2CCN(c3ccccc3)CC2)c1
 : -15.3, 82.9, 91.2, ·
- Cc1cc(NC(=O)COC(=O)C23CC4CC(CC(C4)C2)C3)no1
 : -25.6, 77.9, 86.8, ·

The results go on.
SMILES | HCMV NEC inh | Sa growth inh | Sa growth inh second temp | GIV-Gai inh
Cc1cc(C)cc(NC(=S)Nc2cc(C)cc(C)c2)c1 | -8.4 | 68.1 | 58.4 | 103.4
Cc1cc(/C=N/NC=O)c(C)n1-c1ccc(I)cc1 | -27.2 | 75.7 | 89.9 | ·
COCCNC(=O)CCN1C(=O)c2cccnc2Oc2ccc(C)cc21 | · | 99.4 | 94.9 | 103.9
O=c1cc(CSc2nc3ncccc3[nH]2)nc2ccccn12 | -73.9 | 85.0 | 84.2 | 99.3
Cc1ccc2c(c1)C1c3sc(=O)[nH]c3SCC1(CC(=O)O)C(=O)O2 (stereo not given) | -12.1 | 99.2 | 95.0 | 100.4
Cc1ccccc1/C=C/c1c[nH]c2ccccc12 | -15.0 | 79.2 | 65.0 | 101.3
CCC1=NC(C(F)(F)F)(C(F)(F)F)C2=C(CC(C)(C)CC2=O)N1Cc1ccccc1 | · | 112.3 | 99.2 | 104.8
Cc1cc(C)n(-c2cc(=O)[nH]c(=O)[nH]2)n1 | 11.5 | 95.5 | 97.8 | 101.3
CC(CNC(=O)c1ccc(Cn2c(=O)c3cccn3c3cccnc32)cc1)c1ccccc1 (stereo not given) | · | 90.5 | 87.0 | 102.9
COc1cccc(C(=O)N2c3cc(C)ccc3C(C)(c3ccccc3)CC2(C)C)c1 (stereo not given) | -37.5 | 105.2 | 88.0 | 107.5
Cc1nn(-c2ccccc2)c(CC(C)(C)C(=O)O)c1C(=O)O | -5.2 | 101.8 | 106.8 | 103.6
Cc1cccc2c(=O)cc(CSc3ccccc3NC(=O)c3cccc(F)c3)[nH]c12 | · | 89.9 | 81.0 | 99.6
COC(=O)C(CCSC)NC(=O)c1c(C)oc2ncn(CC(C)C)c(=O)c12 (stereo not given) | · | 104.0 | 91.2 | 106.2
CC1=NN(c2cccc(Cl)c2)C(=O)C1 | -3.2 | 39.6 | 10.0 | 99.3
CCOC(=O)c1ccc(NC(=O)COC(=O)c2cn(CC)c3nc(C)ccc3c2=O)cc1 | -3.5 | 83.2 | 94.2 | 102.1
COc1cc(NC(=O)C2CCN(C(=O)c3cccn3-c3cccnc3)CC2)cc(OC)c1 | -19.0 | · | · | 106.7
Cc1cc(C)c(C#N)c(Oc2ccc(F)cc2)n1 | -7.6 | 94.1 | 86.9 | 98.7
NC(=O)C1CCN(C(=O)c2ccc(Cn3c(SCc4ccc(F)cc4)nc4cccnc43)cc2)CC1 | -46.7 | · | · | 100.6
CC1=C(c2nc(-c3ccccc3)no2)C(c2ccsc2)NC(=S)N1 (stereo not given) | -26.6 | 100.8 | 89.5 | 102.7
CC1=C(C(=O)Nc2ccc(C(=O)NCc3ccc4c(c3)OCO4)cc2)SCCO1 | · | 95.3 | 69.1 | 98.8
COc1ccc(OC)c(NC(=O)c2c(NCc3sccc3C)sc3c2CCCCC3)c1 | · | 83.5 | 85.9 | 116.8
COc1cc(/C=C2\SC(=N)N(c3ccc(F)cc3)C2=O)ccc1O | -27.1 | · | · | 118.1
O=C(C1CCCN(c2nnc(N3CCCCC3=O)s2)C1)N1CCN(c2ccccn2)CC1 (stereo not given) | -22.9 | · | · | 98.5
Cn1cc(CCC(=O)NCCCc2ccccc2)c2ccccc21 | -14.1 | 114.6 | 82.5 | 107.0&104.9

Among those listed so far, two contain a thiophene ring, fused or not:
SMILES | HCMV NEC inh | Sa growth inh | Sa growth inh second temp | GIV-Gai inh
CC1=C(c2nc(-c3ccccc3)no2)C(c2ccsc2)NC(=S)N1 (stereo not given) | -26.6 | 100.8 | 89.5 | 102.7
COc1ccc(OC)c(NC(=O)c2c(NCc3sccc3C)sc3c2CCCCC3)c1 | · | 83.5 | 85.9 | 116.8

The list goes on.
SMILES | HCMV NEC inh | Sa growth inh | Sa growth inh second temp | GIV-Gai inh
N#C/C(C(=O)c1ccccc1)=C1/CCCCCN1 | -11.4 | 103.6 | 89.8 | 98.4
CCOC(=O)Cc1nnn(CC(=O)OCC)n1 | -8.7 | 109.8 | 82.1 | 103.3
CCNS(=O)(=O)c1ccc2c(c1)N(C(C)=O)CCCS2 | 10.2 | · | · | 103.0
CCN1CCCC1CNCc1c(C(=O)O)n(Cc2ccccc2C)c2ccccc12 (stereo not given) | · | 110.1 | 101.2 | 108.7
Cc1ccccc1CSCc1nc2ccccc2c(=O)n1CC#N | -18.7 | 88.6 | 94.8 | ·
CCOC(=O)C1CCN(C(=O)c2cnn(-c3ccccc3)c2C)CC1 | -23.5 | 86.4 | 80.5 | 100.0
c1ccc([S+]2c3ccccc3Nc3ccccc32)cc1 | -8.3 | 87.9 | 65.7 | ·
COC(=S)Nc1cccc(Cl)c1 | -20.9 | 92.7 | 64.3 | 103.9
COc1ccc(NC(=O)CCc2nnc3n(Cc4ccccc4Cl)c(=O)c4ccccc4n23)cc1 | -35.3 | 92.9 | 91.9 | 101.0
O=C(O)c1ccccc1NS(=O)(=O)c1cccc(-n2sc3ccccc3c2=O)c1 | 22.8 | 11.3 | 9.0 | ·
CCc1ccc(Nc2nc(N)nc(C(F)(F)F)n2)cc1 | -14.6 | 114.3 | 103.2 | 106.7
Cc1nonc1CSCC(=O)O | 0.4 | 69.0 | 90.1 | 98.3
COc1cccc(C2CC(=O)Nc3c2c(=O)n(C)c2nc4ccccc4n32)c1OC (stereo not given) | -12.5 | 110.0 | 89.6 | 104.7
O=C1CCCc2nc(Nc3ccc(F)cc3)ncc21 | -29.6 | · | · | 102.9
Cc1ccc(-c2cc(-c3ccccc3)no2)c(O)c1 | -12.8 | 98.1 | 108.8 | 102.7
CCN(C(=O)Cc1c(C(=O)O)n(CC)c2ccccc12)c1cccc(Cl)c1 | 0.7 | 141.5 | 90.3 | 99.4
Cc1ccc(NC(=O)c2ccc(-c3ccccc3)s2)cc1 | -12.9 | 110.9 | 96.0 | 101.9
CCOC(=O)c1[nH]c(C)c(S(=O)(=O)N2CCOCC2)c1C | -1.4 | · | · | 104.7
CCN1CCN(c2cc(C)nc3c(C)c(-c4ccc(OC)c(OC)c4)nn23)CC1 | -20.1 | · | · | 104.9
CC(NC(=O)CSc1ccccn1)c1ccc2c(c1)OCO2 (stereo not given) | -14.5 | 88.8 | 95.9 | ·
CCOc1ccc(C2NC(=O)NC(C)=C2C(=O)OCc2ccc(C)cc2)cc1OC (stereo not given) | -8.0 | · | · | 100.2
Cc1nn(-c2ccccc2)c(C)c1/C=N/NC(=O)c1ccc2c(=O)n3c(nc2c1)CCCCC3 | -16.8 | 87.8 | 92.8 | ·
CC(C)NS(=O)(=O)c1ccc(NC(=O)C2CCCCC2)cc1 | 3.1 | 96.2 | 99.6 | 100.6
O=C(c1ccc2c(c1)OCO2)N1CCN(C2c3ccccc3-c3ccccc32)CC1 | -22.0 | 88.5 | 78.8 | 98.6
O=C(Cn1c(=O)sc2ccccc21)N1CCN(c2ccccc2)CC1 | -8.5 | · | · | 95.8
COc1cc(C)c(Cl)cc1S(=O)(=O)N(C)C | 7.7 | 101.0 | 88.6 | 104.2
O=C(O)C(Cc1ccccc1)Nc1ncnc2ccccc12 (stereo not given) | -7.9 | 83.8 | 79.0 | 99.8
O=C(COc1ccc2ccccc2c1Br)NCCC1=CCCCC1 | -18.0 | 47.0 | 46.5 | ·
CCOC(=O)c1cnn2c(C(F)(F)F)cc(-c3ccc(OC)cc3)nc12 | -33.5 | 72.1 | 84.9 | ·
COc1ccccc1NC(=O)c1ccc2c(Cl)c3c(nc2c1)CCC3 | 1.8 | 111.8 | 98.3 | 101.3
CC1CCCCN1c1cc2c(cc1F)c(=O)c(S(=O)(=O)c1ccccc1)cn2Cc1ccccc1 (stereo not given) | · | 89.0 | 86.2 | 109.1
O=C1COc2ccc(S(=O)(=O)N3CCCC3C(=O)NCc3ccccc3Cl)cc2N1 (stereo not given) | -20.1 | · | · | 103.0
COc1cc2c(cc1OC)CN(C(=O)Nc1ccccc1)CC2 | 2.5 | 97.1 | 83.3 | 101.3
CC(C)(C)NC(=O)COc1ccc2c(c1)OCO2 | -19.5 | 96.3 | 96.2 | 98.5
CCc1ccc(OCc2nc(C)c(C(=O)NC3CC3)s2)cc1 | -29.3 | · | · | 106.4
O=C(N1CCC(c2ccccc2)=N1)C(F)(F)F | 8.7 | 106.5 | 100.2 | 102.1
CCCCc1c(O)nc2cc(C)ccn2c1=O | -12.8 | 99.9 | 97.7 | 100.1
O/N=C/c1ccc(Br)cc1 | -12.7 | 92.5 | 77.1 | 101.2
CC(C)OC(=O)c1c(NC(=O)c2cnn3c2NC(c2ccc(Br)cc2)CC3C(F)(F)F)sc2c1CCCC2 (stereo not given) | -27.8 | · | · | 91.2
Cc1ccc(-n2c(=O)c3c(c4cc(C)ccc4n3C)n(CC(=O)NCCC3=CCCCC3)c2=O)cc1 | · | 122.3 | 100.5 | 103.2
Cc1c(N=Cc2cc(Br)cc(Br)c2O)cccc1C(=O)O | · | 90.0 | 38.3 | 117.7
COc1ccc(C)cc1S(=O)(=O)N1CCN(C)CC1 | · | 99.3 | 90.4 | 103.4
C=CCNc1cnn(-c2ccccc2)c(=O)c1Cl | -19.2 | 102.8 | 87.9 | 98.4
CC(=O)Nc1nc2ccc(NC(=O)C(C)C)cc2s1 | -8.3 | · | · | 101.0
Cc1cc(C)c2c(-n3cccc3)c(C(=O)NCCc3ccc(Cl)cc3)sc2n1 | 4.6 | 109.1 | 95.4 | 99.3
Cc1cc(N2CCC(C(=O)NC(=O)C3CCNCC3)CC2)n2nc(C)c(-c3ccc(Cl)cc3)c2n1 | 2.2 | 86.5 | 92.5 | 103.5
CCCNC(=O)c1cc(-c2ccc(Cl)cc2)n[nH]1 | -19.2 | 104.7 | 87.9 | 104.3
COc1ccc(-c2nc3n(n2)C(c2ccc(O)cc2)C(C(=O)Nc2cccnc2)=C(C)N3)cc1OC (stereo not given) | 5.8 | 104.1 | 98.5 | 100.4
Cc1cccc(C)c1NC(=O)c1csc2c1CCCC2 | -11.0 | 104.5 | 84.6 | 101.0
O=c1[nH]nnn1-c1ccccc1 | -26.4 | 92.7 | 90.4 | ·
Cc1ccc(CNC(=O)C2CCN(S(=O)(=O)c3cc(-c4noc(C)n4)ccc3C)CC2)cc1 | · | 107.8 | 95.8 | 104.2
COc1ccc(NC(=O)Cn2c(=O)n(Cc3ccco3)c(=O)c3ccc(C(=O)NC4CCCC4)cc32)cc1 | -11.5 | 96.2 | 68.0 | 99.6
O=C(O)CSc1c2c(nc3cc(C(=O)N4CCOCC4)ccc13)CCCC2 | -71.3 | 103.0 | 91.1 | 102.5
